Cruzain noTriton = qHTS Assay for Promiscuous and Specific Inhibitors of Cruzain (without detergent); actives 2.3% (n = 200,000); Potency, µM, for inactives: max response, negative = inhibition, most hits filed as inhibitors; purified cruzain, Z-FR-AMC fluorescence, no detergent; Cruzipain (Trypanosoma cruzi), P25779;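 further: plate controls were enzyme without inhibitor for no effect and buffer without enzyme for full effect; nearly all actives have a fitted effect of over 40% in size; top concentration of the series not given in the record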
Target sequence (P25779 123-467 limits assumed): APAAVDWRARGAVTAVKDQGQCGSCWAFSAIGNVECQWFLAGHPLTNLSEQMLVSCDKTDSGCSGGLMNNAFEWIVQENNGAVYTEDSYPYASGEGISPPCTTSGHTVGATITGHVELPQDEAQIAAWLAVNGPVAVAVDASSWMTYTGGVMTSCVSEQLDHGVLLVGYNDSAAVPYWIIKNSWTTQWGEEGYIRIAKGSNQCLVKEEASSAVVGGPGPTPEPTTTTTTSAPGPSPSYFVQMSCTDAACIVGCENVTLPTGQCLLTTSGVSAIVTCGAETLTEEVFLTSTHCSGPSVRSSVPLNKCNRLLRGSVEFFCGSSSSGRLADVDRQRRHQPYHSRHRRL
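Detergent-free condition (0.00005% Triton X-100) in acetate buffer pH 5.5 with DTT. 1.5 nM enzyme and compound were pre-mixed 15 min, then 2 uM Z-FR-AMC substrate added; reaction progress from fluorescence change between first and third reads (60 s).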
SARS PLpro yeast = qHTS of Yeast-based Assay for SARS-CoV PLP. S. cerevisiae expressing SARS-CoV PLpro, growth rescue; control for the full effect not named in the record. Potency, µM (series often up to 32.9 µM), for inactives: top-dose activity, positive = growth rescue. actives 0.19% (n = 330,000); active means well fitted rising curve with a large enough effect; inconclusive means small, poorly fitted or top-dose-only effect; inactive means no such curve, though single readings can be large or run the other way; further: 0% is about no effect; nearly all actives have a fitted effect of over 55% in size; growth read by luminescence after 48 h
Cruzain inh Det = qHTS Assay for Promiscuous and Specific Inhibitors of Cruzain (with detergent). Cruzipain (Trypanosoma cruzi), P25779. purified cruzain, Z-FR-AMC fluorescence, 0.01% Triton. Potency, µM, for the others: max response, negative = inhibition, usual class: inhibitors. actives 0.43% (n = 200,000). AID 1478, 2009;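 further: plate controls were neutral wells for no effect and buffer without enzyme for full effect; nearly all actives have a fitted effect of over 40% in size; top concentration of the series not given in the record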
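Detergent-containing run (0.01% Triton X-100) in acetate buffer pH 5.5 with 5 mM DTT: enzyme at 1.5 nM final, 15 min compound preincubation at room temperature, then 2 uM Z-FR-AMC substrate. Activity taken as 60 s fluorescence increase at 360/450 nm.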
StopGo reporter = High Throughput Screening for Foot and Mouth Disease Virus Antivirals. human cells with a luciferase reporter of 2A StopGo recoding; control for the full effect not named in the record. actives 1.2% (n = 410,000). Potency, µM (top dose mostly 57.9 µM), for the others: at the highest dose signal change, negative = less light; active = well fitted falling curve with a large enough effect; inconclusive = small, poorly fitted or top-dose-only effect; inactive = no such curve, though single readings can be large or run the other way; tested in HEK293T cells; further: on the % scale 0 is the no-effect control and ±100 the full control effect; nearly all actives have a fitted effect of over 45% in size; luciferase light after 4 h
MARV entry inh = qHTS for inhibitors of binding or entry into cells for Marburg Virus | Potency, µM (series often up to 37.8 µM), for inactives: at the top dose activity change, negative = inhibition, hits mostly inhibitors | actives 1.8% (n = 300,000) | Marburg virus pseudotyped entry inhibition, cell reporter; control for the full effect not named in the record; about a third of the inactives were read at about 46 µM | AID 540276, 2011; active = well fitted inhibition curve with a large enough effect; inconclusive = small, poorly fitted or top-dose-only effect, or effect the other way; inactive = flat fitted curve, though single readings scatter; tested in HEK293 cells; about a fifth of its hits are not listed in these tables; further: on the % scale 0 is the no-effect control and ±100 the full control effect; luciferase read-out
NS1 inh = qHTS Assay for Inhibitors of Influenza NS1 Protein Function. S. cerevisiae slowed by influenza A NS1, growth recovery by OD600. Potency, µM (doses to about 46.1 µM), without a hit: at the highest dose activity, positive = more growth. actives 0.4% (n = 270,000); active means well fitted rising curve with a large enough effect; inconclusive means small, poorly fitted or top-dose-only effect; inactive means no such curve, though single readings can be large or run the other way; further: nearly all actives have a fitted effect of over 50% in size
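OD600 was taken as the measure of yeast growth restored by compound in an NS1-expressing S. cerevisiae strain. Cells had been washed out of glucose medium and diluted 1:100 into galactose -URA medium, pH 6.0.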
RE007 growth inh = qHTS Assay for Inhibitors of the HIV-1 protein Vpr; Potency, µM (series often up to 92.2 µM), for the others: top-dose activity change, negative = less growth; AID 651644, 2012; actives 0.21% (n = 360,000); S. pombe RE007 Vpr strain, BacTiter-Glo ATP luminescence, 24 h; control for the full effect not named in the record; active = well fitted falling curve with a large enough effect; inconclusive = small, poorly fitted or top-dose-only effect; inactive = no such curve, though single readings can be large or run the other way;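 further: on the % scale 0 is the no-effect control and ±100 the full control effect; nearly all actives have a fitted effect of over 50% in size; the assay follows cell death caused by Vpr and the record does not say whether a fall means rescue or toxicity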
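Fission yeast RE007 carrying one integrated HIV-1 vpr copy, seeded at OD 0.01 in PMG+AL medium with 23 nL pinned compound. Grown 24 h at 30 degrees; viability read by BacTiter-Glo luminescence after 5 min.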
Lassa entry inh = qHTS for Inhibitors of binding or entry into cells for Lassa Virus. Lassa virus pseudotype entry inhibition, cell reporter; control for the full effect not named in the record. AID 540256, 2011. Potency, µM (series often up to 37.9 µM), inactives show top-dose activity change, negative = inhibition, hits mostly inhibitors. actives 1.2% (n = 300,000); active means well fitted inhibition curve with a large enough effect; inconclusive means small, poorly fitted or top-dose-only effect, or effect the other way; inactive means flat fitted curve, though single readings scatter; tested in HEK293 cells; further: on the % scale 0 is the no-effect control and ±100 the full control effect; nearly all actives have a fitted effect of over 50% in size; luciferase read-out
Numbers without * were called inactive; [ ] = another dose, or the depositor's remark. Unless noted, the call rests on the fitted dose curve; in most records, active means well fitted curve in the direction sought with a large enough effect; inconclusive means small, poorly fitted or top-dose-only effect, or another doubt; inactive means no such curve, though single readings can be large; an effect the other way counts as inactive or inconclusive. Potency means the concentration at half of the fitted maximal effect.

`COc1ccccc1C(=O)Nc1c(C(=O)Nc2ccccc2F)oc2ccccc12` gave Cruzain noTriton -24.5%, Cruzain inh Det -6.2%, StopGo reporter -4.1% and Lassa entry inh -21.5%[46.1 µM].
O=C1c2ccc(-c3nc4ccccc4o3)cc2C(=O)N1Cc1cccnc1 was read as MARV entry inh -0.2%, NS1 inh 0.1%, RE007 growth inh -5.0% and Lassa entry inh 6.6%.
Cc1cccc(NC(=O)c2c(NC(=O)c3ccco3)sc3c2CCC(C)C3)c1 (stereo unspecified) was read as Cruzain noTriton -1.7%, Cruzain inh Det -1.8%, StopGo reporter -5.4% and Lassa entry inh inconclusive.
Screening CCc1cc(CNC(=O)c2cccc(OC3CCN(S(C)(=O)=O)CC3)c2)on1 returned StopGo reporter inconclusive, MARV entry inh inconclusive, RE007 growth inh -18.5% and Lassa entry inh inconclusive.
`COC(=O)c1ccc2nc(NC(=O)CCS(=O)(=O)c3ccccc3)sc2c1` gave SARS PLpro yeast -15.2%, StopGo reporter -6.3%, MARV entry inh inconclusive, NS1 inh -9.7%, RE007 growth inh 15.7% and Lassa entry inh -13.4%[46.1 µM].
`COc1ccccc1-n1c(SCC(N)=O)nnc1-c1ccccc1` gave Cruzain noTriton -0.8%, SARS PLpro yeast -3.0%, Cruzain inh Det 3.6%, StopGo reporter -24.7%, MARV entry inh 23.5%, NS1 inh -27.2%, RE007 growth inh 3.9% and Lassa entry inh 8.1%.
Cc1ccc(C2=NN(C(=O)CN3C(=O)c4ccccc4S3(=O)=O)C(c3ccco3)C2)cc1 (stereo unspecified) was read as SARS PLpro yeast 0.2%, StopGo reporter -11.6%, MARV entry inh inconclusive, RE007 growth inh 13.1% and Lassa entry inh inconclusive.
`N#Cc1ccccc1S(=O)(=O)N1CCC(C(=O)Nc2cccc(C(=O)NC3CC3)c2)CC1` gave SARS PLpro yeast -2.0%, StopGo reporter inconclusive, MARV entry inh 7.2%, RE007 growth inh 2.4% and Lassa entry inh inconclusive.
For Cc1ccccc1C(=O)Nn1cnnc1 the results were SARS PLpro yeast -1.0%, StopGo reporter -7.5%, MARV entry inh 14.8%[46.1 µM], NS1 inh -6.2%, RE007 growth inh 2.5% and Lassa entry inh -12.5%[46.1 µM].
`Cc1cccc(Oc2coc3cc(OC(=O)c4cc5ccccc5oc4=O)ccc3c2=O)c1` gave Cruzain noTriton 5.01µM*, SARS PLpro yeast -8.8%, Cruzain inh Det 4.0%, StopGo reporter 77.5%[activator], MARV entry inh -2.8%, NS1 inh -5.8%, RE007 growth inh 11.0% and Lassa entry inh inconclusive.
CCOc1ccccc1NC(=O)C1CCN(S(=O)(=O)c2ccc(Br)cc2)CC1 was read as Cruzain noTriton 3.7%, Cruzain inh Det 0.0%, StopGo reporter -18.4% and Lassa entry inh 10.6%[46.1 µM].
For Cc1ccc(/C=C2\SC(N3CCN(C(c4ccccc4)c4ccccc4)CC3)=NC2=O)o1 the results were Cruzain noTriton 7.94µM*, SARS PLpro yeast -36.2%, Cruzain inh Det -11.7%, StopGo reporter inconclusive, MARV entry inh inconclusive, NS1 inh 11.2µM*, RE007 growth inh -17.6% and Lassa entry inh inconclusive.
For C/C(=N/NC(=O)CNc1ccc(C)cc1)c1ccc(Br)s1 the results were Cruzain noTriton -10.8%, SARS PLpro yeast -6.4%, Cruzain inh Det -1.1%, StopGo reporter 45.7%[activator], MARV entry inh inconclusive, NS1 inh 23.2%, RE007 growth inh -13.1% and Lassa entry inh 0.6%.
CCN(c1ccccc1)S(=O)(=O)c1ccc2c(c1)CC(C)N2C(=O)C1CC1 (stereo unspecified) was read as SARS PLpro yeast 16.8%, StopGo reporter inconclusive, MARV entry inh -25.0%[46.1 µM], NS1 inh -31.7%, RE007 growth inh 4.5% and Lassa entry inh inconclusive.
For COc1ccccc1N/N=C/c1ccc2c(c1)OCO2 the results were Cruzain noTriton inconclusive, SARS PLpro yeast -0.5%, Cruzain inh Det -9.2%, StopGo reporter 41.0%[activator], MARV entry inh -16.2%, NS1 inh 7.4%, RE007 growth inh -22.5% and Lassa entry inh 19.9%.
Screening O=C1CCCc2oc3c(cc(NS(=O)(=O)c4ccc5c6c(cccc46)C(=O)N5)c4ccccc43)c21 returned SARS PLpro yeast -0.8%, StopGo reporter -9.3%, MARV entry inh 11.2µM*, NS1 inh 21.6%, RE007 growth inh -6.9% and Lassa entry inh 3.3%[46.1 µM].
Cc1ccc(CN(C)C(=O)c2ccccc2Oc2ccccc2)o1 was read as Cruzain noTriton -1.3%, SARS PLpro yeast -2.3%, Cruzain inh Det -2.2%, StopGo reporter -14.9%, MARV entry inh -8.7%, NS1 inh 0.4%, RE007 growth inh -11.3% and Lassa entry inh 0.8%.
For Cc1cc(C(C)(C)C)cc(S(=O)(=O)Nc2cccc(C(=O)O)c2)c1C the results were Cruzain noTriton -7.3%, SARS PLpro yeast 1.7%, Cruzain inh Det -7.6%, StopGo reporter 60.2%[activator], MARV entry inh -4.9%, NS1 inh 21.0%, RE007 growth inh -1.4% and Lassa entry inh 11.9%[14.3 µM].
Screening COC(=O)C(C)n1cnc2c(cnn2-c2ccc(Cl)cc2)c1=O (stereo unspecified) returned Cruzain noTriton -3.3%, SARS PLpro yeast 2.6%, Cruzain inh Det 4.5%, StopGo reporter -17.7%, MARV entry inh -5.1%, NS1 inh -3.7%, RE007 growth inh -15.1% and Lassa entry inh -8.6%.
O=[N+]([O-])c1ccc(Sc2ccccc2Cl)nc1 was read as Cruzain noTriton -11.0%, SARS PLpro yeast 13.5%, Cruzain inh Det -2.8%, StopGo reporter -22.4%, MARV entry inh inconclusive, NS1 inh -3.7%, RE007 growth inh -12.1% and Lassa entry inh -2.4%.
Screening CCOc1ccccc1NC(=O)Nc1cccc(S(N)(=O)=O)c1 returned SARS PLpro yeast 2.3%, StopGo reporter 3.0%, MARV entry inh -26.0%, NS1 inh -3.0%, RE007 growth inh -1.4% and Lassa entry inh inconclusive.
Screening CC12CCC(=O)C=C1CCC1C2C(O)CC2(C)C1CCC2(O)C(=O)COC(=O)COCC(=O)O (stereo unspecified) returned StopGo reporter -4.3%, MARV entry inh -1.9%[46.1 µM], RE007 growth inh -8.6% and Lassa entry inh 7.3%[46.1 µM].
`NC(=O)[C@H]1CC2(CC(c3cccc(NC(=O)COc4ccc(Cl)cc4)c3)=NO2)CN1C(=O)Cc1ccc([N+](=O)[O-])cc1` (stereo partly specified) gave SARS PLpro yeast 2.4%, StopGo reporter inconclusive, NS1 inh -37.2% and RE007 growth inh -19.2%.
For C=CC(=O)N1C/C(=C/c2ccc(F)cc2)C(=O)/C(=C\c2ccc(F)cc2)C1 the results were StopGo reporter 8.91µM*, MARV entry inh inconclusive, RE007 growth inh -16.4% and Lassa entry inh 2.51µM*.
For CCOc1ccc(OCCCC(=O)NCCc2ccc(OC)cc2)cc1 the results were SARS PLpro yeast -0.4%, StopGo reporter -13.9%, NS1 inh -3.6% and RE007 growth inh 1.9%.
For COc1ccc(/C=C/c2nnc(NC(=O)COc3cccc(C)c3)s2)cc1 the results were Cruzain noTriton 12.6µM*, SARS PLpro yeast 17.8%, Cruzain inh Det 1.6%, StopGo reporter -9.6%, MARV entry inh -25.1%, NS1 inh 12.4%, RE007 growth inh -6.3% and Lassa entry inh -0.8%.
Screening O=C(CSc1ccccc1)NCCc1ccccc1 returned SARS PLpro yeast 2.1%, StopGo reporter 28.0%, MARV entry inh inconclusive, NS1 inh 5.3%, RE007 growth inh 36.3% and Lassa entry inh 3.3%[46.1 µM].
Screening COc1ccccc1-c1cn[nH]c(=S)n1 returned Cruzain noTriton -3.7%, SARS PLpro yeast -6.6%, Cruzain inh Det 1.1%, StopGo reporter -9.5%, MARV entry inh 1.2%, NS1 inh 4.7%, RE007 growth inh 44.9% and Lassa entry inh 12.4%.
For COc1ccc(Cn2c(=O)c3oc4ccccc4c3n(Cc3cccc(C)c3)c2=O)cc1 the results were Cruzain noTriton -2.4%, Cruzain inh Det -0.7%, StopGo reporter -5.1% and Lassa entry inh 13.8%[46.1 µM].
`Nc1c(C(=O)Nc2ccccc2)c2nc3ccccc3nc2n1CCCN1CCOCC1` gave SARS PLpro yeast 2.0%, StopGo reporter inconclusive, MARV entry inh inconclusive, NS1 inh 5.1%, RE007 growth inh 9.0% and Lassa entry inh -10.2%.
`CC1CCCCN1S(=O)(=O)c1ccc(S(=O)(=O)N(CC(=O)Nc2ccccc2)Cc2cccs2)cc1` (stereo unspecified) gave Cruzain noTriton -13.2%, SARS PLpro yeast -4.3%, Cruzain inh Det -4.7%, StopGo reporter -12.6%, MARV entry inh inconclusive, NS1 inh 15.4%, RE007 growth inh -3.9% and Lassa entry inh inconclusive.
Cc1c(NS(=O)(=O)c2cc(C(=O)NCC3CCCO3)cc(Cl)c2Cl)c(=O)n(-c2ccccc2)n1C (stereo unspecified) was read as SARS PLpro yeast 0.8%, StopGo reporter -1.5%, MARV entry inh 9.2%, RE007 growth inh -12.4% and Lassa entry inh 7.8%.
Screening O=C(c1cc(-c2ccc(Cl)cc2)on1)N(Cc1cccc(F)c1)Cc1ccco1 returned Cruzain noTriton inconclusive, Cruzain inh Det -7.0%, StopGo reporter 8.5%, MARV entry inh inconclusive and Lassa entry inh -12.1%[46.1 µM].
`Cc1nn(C)c(C(=O)NNC(=S)Nc2ccc(Cl)cc2)c1[N+](=O)[O-]` gave Cruzain noTriton -3.2%, SARS PLpro yeast 1.6%, Cruzain inh Det 0.0%, StopGo reporter 3.2%, MARV entry inh inconclusive, NS1 inh -11.7%, RE007 growth inh -3.5% and Lassa entry inh 8.1%.

Screening results as filed in PubChem BioAssay.
